AID923: qHTS Assay for Allosteric/Competitive Inhibitors of Caspase-1: Spectroscopic Profiling in AFC Spectral Region; compound fluorescence, AFC spectral region (405/520 nm); almost no hit is shown here; Potency, µM (highest dose often 57.5 µM), for the others: at the top dose fluorescence increase, usual class: activators; actives 1.1% (n = 75,000); active = well fitted activation curve with a large enough effect; inconclusive = small, poorly fitted or top-dose-only effect;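 also: potency is read from the fitted curve at half-maximal effect; 0% is about no effect; scaled to a free AFC standard on each plate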
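Baseline compound fluorescence (AFC region, 405 nm ex/520 nm em) taken from the intercept of kinetic reads with 50 nM caspase-1 and 5 uM Ac-WEHD-AFC; normalized to an on-plate AFC standard curve; compounds titrated up to 57 uM.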
A488 autofl: A488 region autofluorescence. compound autofluorescence, A488 spectral region, dye equivalency; stronger effect = higher value. max dye equivalency, M. actives 0.1% (n = 59,000). AID 591; active = above 10 nM dye equivalent; inconclusive = 1 to 10 nM; inactive = 1 nM or less; about half of its hits are not listed in these tables;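 also: highest value over a series up to 38 µM; compound alone in buffer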
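Compounds pin-transferred into 100 mM Tris buffer, pH 8.0, incubated 15 min at room temperature, then imaged with 480 nm excitation/540 nm emission filters. Fluorescence converted to Alexa 488 dye-equivalent concentration via an on-plate six-point A488 standard curve.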
Resorufin autofl: compound fluoresces in the resorufin spectral region; actives 0.04% (n = 59,000); max dye-equivalent concentration, M; Compound fluorescence, resorufin region 547/598 nm, buffer; stronger effect = higher value; active = above 10 nM dye equivalent; inconclusive = 1 to 10 nM; inactive = 1 nM or less; a few of its hits are not listed in these tables; also: highest value over a series up to 38 µM
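Intrinsic fluorescence profiled in the resorufin window (ex 547 nm, em 598 nm) after 15 min at room temperature in pH 8.0 Tris buffer (100 mM); responses normalized against a six-point resorufin standard series as dye-equivalent concentration.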
A647 fluor: compound fluoresces in the A647 spectral region; Compound fluorescence, A647 channel (570/671 nm), Tris buffer; max dye-equivalent concentration, M; 59,000 tested, under 10 active; AID 592; active means above 1 µM dye equivalent; inconclusive means 0.1 to 1 µM; inactive means 0.1 µM or less;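 also: values scaled relative to a standard on each plate; highest value over a series up to 38 µM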
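Tris 100 mM pH 8.0; cpd + A647 stds pin-transferred; 15 min RT; CCD imager, ex 570/em 671. Output = A647-equivalent conc. per cpd conc.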
TSHR ag: agonists of human thyroid stimulating hormone receptor; Potency, µM (top dose mostly 57.1 µM), for the others: top-dose activation, usual class: activators; AID 926; HEK293-CNG-TSHR cells (CNG channel as cAMP sensor), membrane potential dye, cAMP; actives 0.48% (n = 73,000); active = well fitted activation curve of enough size with the parental cells flat; inconclusive = any curve in the parental cells; inactive = parental cells flat and receptor cells flat or falling; also: potency is read from the fitted curve at half-maximal effect; % of control where 0% means no effect; weak receptor curves with flat parental cells got no call and are not listed
Target sequence (P16473 whole entry, looked up): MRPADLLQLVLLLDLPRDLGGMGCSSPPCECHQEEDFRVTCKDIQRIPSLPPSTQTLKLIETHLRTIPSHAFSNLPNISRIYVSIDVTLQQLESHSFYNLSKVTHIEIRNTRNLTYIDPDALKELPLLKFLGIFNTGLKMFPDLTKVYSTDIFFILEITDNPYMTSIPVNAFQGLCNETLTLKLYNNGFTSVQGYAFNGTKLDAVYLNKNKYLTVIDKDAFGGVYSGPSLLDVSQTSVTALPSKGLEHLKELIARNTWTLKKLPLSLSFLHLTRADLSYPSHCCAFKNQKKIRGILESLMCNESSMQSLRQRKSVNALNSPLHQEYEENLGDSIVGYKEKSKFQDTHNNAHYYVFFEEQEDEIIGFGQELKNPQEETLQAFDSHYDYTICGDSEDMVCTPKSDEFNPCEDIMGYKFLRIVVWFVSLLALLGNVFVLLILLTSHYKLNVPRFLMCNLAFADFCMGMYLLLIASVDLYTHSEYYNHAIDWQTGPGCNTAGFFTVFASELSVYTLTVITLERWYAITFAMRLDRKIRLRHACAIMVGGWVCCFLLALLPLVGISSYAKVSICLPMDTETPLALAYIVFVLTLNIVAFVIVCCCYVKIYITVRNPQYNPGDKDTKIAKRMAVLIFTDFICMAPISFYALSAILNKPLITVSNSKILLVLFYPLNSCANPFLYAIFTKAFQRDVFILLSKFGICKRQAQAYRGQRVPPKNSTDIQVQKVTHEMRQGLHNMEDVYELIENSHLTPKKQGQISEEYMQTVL
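cAMP rise detected as CNG-channel membrane depolarization by fluorescent dye (emission 590 nm), 30 min after compound, following 60 min dye loading containing 100 uM RO 20-1724 at room temperature. Cells: TSHR/CNG HEK 293, with parental CNG HEK 293 as control.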
* marks the source's active call; other numbers are inactive results; i = inactive; ? = inconclusive; nt = no result given; [ ] = another dose, or the depositor's remark. The list is partial; the hit share may differ from the screen's.

mol	AID923	A488 autofl	Resorufin autofl	A647 fluor	TSHR ag
CC1(C)CC(=O)C=C(NCCN2CCN(C(=O)Nc3ccccc3)CC2)C1	-1.4%	i	i	1.6e-08	3%
CC12CCC(C(=O)N3CCCc4ccccc43)(CC1=O)C2(C)C (centres undefined)	-0.5%	nt	nt	nt	5%
O=C(Nc1ccccc1C(F)(F)F)N1CCCC(O)C1 (centres undefined)	1.1%	i	i	2.8e-08	2%
O=C(Oc1ccc(N(Cc2cccs2)C2=NS(=O)(=O)c3ccccc32)cc1)c1ccco1	-0.5%	i	i	1.5e-08	5%
CCn1c(=O)cc(OCC(=O)NCC2CCCO2)c2ccccc21 (centres undefined)	-1.2%	i	i	2.3e-09	?
O=C(O)c1ccc(CSc2nc3ccccc3o2)cc1	-2.7%	i	i	2.1e-09	9%
O=C(CSc1ncn[nH]1)NCCOc1ccccc1	1.2%	nt	nt	nt	-5%
Clc1ccccc1-c1nc(-n2ccnc2)c2ccccc2n1	1.9%	i	i	1e-09	19%

The list continues.
mol	AID923	A488 autofl	Resorufin autofl	A647 fluor	TSHR ag
O=C(C1CCCO1)N(c1cccc(Cl)c1)C1C=CS(=O)(=O)C1 (centres undefined)	0.1%	i	i	3.4e-08	10%[11.4 µM]
CCOC(=O)n1c(=O)oc2cc(S(=O)(=O)N3CCCCC3)ccc21	1.3%	i	i	8.2e-09	3%
C=CCNC(=O)Nc1ccc2oc(C)nc2c1	-1.7%	i	i	1e-09	7%
CN(C)c1nc(OCCOC(=O)COc2ccc(Cl)cc2Cl)nc(N(C)C)n1	0.5%	i	i	1e-08	8%
CN(Cc1ccccc1)C(=O)CNC(=O)Cn1cnc2ccccc2c1=O	0.3%	i	i	3.5e-08	0%
CC(C)CCN1CCNC(=O)C1CC(=O)Nc1ccc(F)cc1 (centres undefined)	-2.7%	i	i	2.1e-08	9%
CCOC(=O)C1CCN(C(=O)c2ccc(Cl)c(Cl)c2)CC1	-0.2%	i	i	6.4e-09	?
COc1ccc(N2CCN(CCNC(=O)CCN3C(=O)COc4ccccc43)CC2)cc1	-1.0%	i	i	2.2e-09	-8%

Other records.
mol	AID923	A488 autofl	Resorufin autofl	A647 fluor	TSHR ag
O=C(c1ccc(Br)o1)N1CCN=C1SCc1cccc(F)c1	1.7%	nt	nt	nt	?
O=C1CCc2cc(S(=O)(=O)N3CCN(Cc4ccc5c(c4)OCO5)CC3)ccc2N1	2.2%	i	i	1e-09	nt
CCN(C(C)=O)c1nc(CSc2nnc(NC(C)C)s2)cs1	-0.9%	i	i	5.3e-08	-1%
CCOC(=O)C(Cc1ccccc1)NC(=O)CNC(C)=O (centres undefined)	-0.5%	i	i	9.3e-09	4%
C=CCOC(=O)C1=C(C)N=C2SCCC(=O)N2C1c1cccs1 (centres undefined)	0.0%	i	i	3.7e-09	?
COc1cc(OC)cc(-c2cc(NC(C)=O)n[nH]2)c1	2.1%	nt	nt	nt	1%
CC(=O)c1cc2c(=O)c3cc(C)ccc3oc2nc1C	-1.0%	i	i	4e-08	-7%
COc1ccc(OC)c(S(N)(=O)=O)c1	-2.0%	i	i	5.7e-08	2%

Continuation.
mol	AID923	A488 autofl	Resorufin autofl	A647 fluor	TSHR ag
Cc1nc2cc(NC(=O)Nc3ccc(N4CCOCC4)cc3)ccc2n1C	0.1%	i	i	3.3e-08	-10%
COc1ccccc1NC(=O)C(C)NS(=O)(=O)c1ccc(F)cc1 (centres undefined)	0.2%	i	i	3e-08	1%
Clc1ccccc1-c1ccc2ncnc(NC3CCNCC3)c2c1	1.1%	i	i	2.9e-09	11%
O=C1CCc2nc3ccccc3c(=O)n2N1	nt	i	i	1e-09	nt
CCn1c(CNc2nc(-c3ccccc3)cs2)nnc1SCC(=O)NCc1ccco1	-0.1%	i	i	4.4e-09	-1%[11.4 µM]
COc1ccc(-n2c(=O)c(C)nc3cnc(Oc4cccc(Cl)c4)nc32)cc1	-1.0%	i	i	1e-09	?
Nc1ccc2oc3ncccc3c(=O)c2c1	nt	i	i	1e-09	nt
CCN(CC)CCCn1c(=S)[nH]c2ccc(Cl)cc2c1=O	-0.5%	i	i	1e-09	12%

More records follow:
mol	AID923	A488 autofl	Resorufin autofl	A647 fluor	TSHR ag
CC1CN(C(=O)CSc2ncnc3sccc23)CC(C)O1 (centres undefined)	-1.5%	i	i	3e-08	7%
CC(=O)c1c(NCCc2ccccc2)cc(C)oc1=O	0.8%	i	i	1.6e-09	24%
CNC(=O)c1cc2c(=O)n3cccc(C)c3nc2n1C	4.8%	i	i	1e-09	-6%
CCC1SC(N)=NC1=O (centres undefined)	nt	i	i	3.2e-09	nt
O=C(COC(=O)C1CC(=O)N(Cc2ccccc2)C1)Nc1ccc2c(c1)OCO2 (centres undefined)	-0.2%	i	i	1.9e-08	2%
O=C(Nc1ccc(CN2CCOCC2)cc1)c1cc2ccccc2oc1=O	4.2%	i	i	4e-08	-1%
CN[C@@H]1[C@H](O[C@@H]2O[C@H](CO)[C@@H](N)[C@H](O)[C@@H]2O)O[C@H]2C[C@@H](N)[C@@H](O[C@H]3[C@@H](O)[C@H](O)[C@H](N)C[C@@H]3N)O[C@H]2[C@H]1O	0.8%[25.7 µM]	i	i	1e-09	0%[25.6 µM]
CCCCN(CC)CCCNC(=O)CC1Nc2ccccc2NC1=O (centres undefined)	1.8%	i	i	1e-09	-2%

Following part:
mol	AID923	A488 autofl	Resorufin autofl	A647 fluor	TSHR ag
CN1CCN(CCCNN)CC1	4.4%[11.5 µM]	i	i	2.2e-08	13%[11.4 µM]
O=S(=O)(Nc1ccc(S(=O)(=O)N2CCCCC2)cc1)c1cccs1	-1.0%	i	i	1.1e-09	-4%
O=C(CC1Sc2ncnn2C1=O)Nc1ccc(Br)cc1 (centres undefined)	-0.6%	nt	nt	nt	?
Cn1c(=O)cc(SCC(=O)N2CCN(C(=O)c3ccco3)CC2)c2ccccc21	-0.5%	i	i	1.2e-08	3%[11.4 µM]
Cc1cc(OCC(=O)N2CCOCC2)c(C(C)C)cc1Cl	-2.9%	i	i	4.6e-08	nt
Cc1ccccc1-c1cncnc1Nc1ccc(F)cc1	-2.3%	i	i	1e-09	nt
O=C1CC(c2ccc(F)cc2)Cc2nc(N3CCc4ccccc43)ncc21 (centres undefined)	8.0%	i	i	1e-09	22%
S=C(c1cccs1)N1CCCC1	1.8%	i	i	1.2e-08	1%

Continued:
mol	AID923	A488 autofl	Resorufin autofl	A647 fluor	TSHR ag
COc1ccccc1OCC(=O)NCc1ccco1	-2.8%	i	i	2.6e-09	-5%
COC(=O)c1[nH]c(C)c(/C(O)=C2\C(=O)C(=O)N(CCN3CCOCC3)C2c2ccccc2OC)c1C (centres undefined)	nt	i	i	4.5e-09	nt
COc1cc(NCC[C@@H]2CCCCN2)c2ncccc2c1	0.1%[11.5 µM]	i	i	1e-09	-1%[11.4 µM]
CCOc1cc(S(=O)(=O)n2c(C)nc3ccccc32)ccc1F	5.1%	i	i	1e-09	?
COC(=O)c1cc(NC(=O)CN2CCC(C(N)=O)(N3CCCCC3)CC2)cc(C(=O)OC)c1	-1.0%	i	i	1.8e-08	1%
CC1(C)Cc2c(sc3c2c(=N)n(Cc2ccco2)c(=O)n3Cc2ccc(F)cc2)CO1	1.3%	i	i	4.7e-09	?
CCOc1cc(C#N)c(NC(=O)c2ccco2)cc1OCC	-2.3%	i	i	2.5e-08	5%
Cc1ccc(S(=O)(=O)N(C)Cc2cc3ccccc3[nH]c2=O)cc1	0.7%	i	i	1e-09	16%

Continuation.
mol	AID923	A488 autofl	Resorufin autofl	A647 fluor	TSHR ag
Cc1ccc(C2C(C(=O)c3sc(-c4ccccc4)nc3C)=C(O)C(=O)N2CCN(C)C)o1 (centres undefined)	2.4%	i	i	2.1e-09	-129%[inhibitor]
CC1CCN(C(=O)CSc2nncn2-c2ccccn2)CC1	1.9%	i	i	1e-09	-3%
O=C(Oc1cccc(-n2cnnn2)c1)C1CCCCC1	0.7%	i	i	1e-09	14%
COc1cc(Cl)c(CC(=O)c2c[nH]c3ccccc23)cc1OC	0.6%[11.5 µM]	i	i	3.3e-09	4%[11.4 µM]
O=C(CSc1nc2ccccc2o1)Nc1nc2ccccc2s1	-1.9%	i	i	2.9e-09	?
Oc1c(CN2CCOCC2)cc(-c2ccccc2)cc1CN1CCOCC1	0.0%	i	i	2.5e-08	14%
Cc1ccc(S(=O)(=O)N2CCN(S(=O)(=O)c3ccc(C)cc3)C3OCCOC32)cc1 (centres undefined)	-0.5%	nt	nt	nt	9%
CC(C)(C)n1ncc2c(=O)n(CC(=O)N3CCCCCC3)cnc21	-0.7%	i	i	1e-09	0%

Additional records.
mol	AID923	A488 autofl	Resorufin autofl	A647 fluor	TSHR ag
Cc1ccc(C2CC(C(F)(F)F)n3nc(C(=O)NCc4c(C)nn(C)c4C)c(Cl)c3N2)cc1 (centres undefined)	-1.8%	i	i	3.3e-08	13%
CCCN1CCC(NC(=O)Nc2ccc(F)cc2F)CC1	1.3%	i	i	1e-09	3%
Clc1ccc2c(c1)N(CCCN1CCCC13CCCCC3)c1ccccc1S2	0.0%[11.5 µM]	i	i	1e-09	-1%[11.4 µM]
Cc1cc2nc(-c3ccc(SCC(=O)N4CCOCC4)nc3)[nH]c2cc1C	2.0%	i	i	5.7e-08	-4%
N#Cc1c(NC(=O)CSc2nc(N)cc(=O)[nH]2)sc2c1CCCCCC2	-0.3%	i	i	1.4e-08	nt
CCNC(=O)N1C(CC(=O)OCC)C(=O)NC2CCCCC21 (centres undefined)	-0.7%	i	i	5.5e-09	4%
CCOC(=O)C1C(=O)OC2(CCOC(C)(C)C2)C1C(=O)OCC (centres undefined)	0.5%	nt	nt	nt	3%
Cc1ccc(NC(=O)CN(C)S(=O)(=O)c2cccc3cccnc23)cc1	-0.2%	nt	nt	nt	9%

One compound at a time, as listed above. Order of screens: AID923, A488 autofl, Resorufin autofl, A647 fluor, TSHR ag
`COc1cc(Cl)c(CC(=O)c2c[nH]c3ccccc23)cc1OC` is listed as 0.6%[11.5 µM], i, i, 3.3e-09, 4%[11.4 µM]
`CCOc1cc(C#N)c(NC(=O)c2ccco2)cc1OCC` is listed as -2.3%, i, i, 2.5e-08, 5%
`CCCN1CCC(NC(=O)Nc2ccc(F)cc2F)CC1` is listed as 1.3%, i, i, 1e-09, 3%
`Cc1cc(OCC(=O)N2CCOCC2)c(C(C)C)cc1Cl` is listed as -2.9%, i, i, 4.6e-08, nt
`O=C(C1CCCO1)N(c1cccc(Cl)c1)C1C=CS(=O)(=O)C1` (centres undefined) is listed as 0.1%, i, i, 3.4e-08, 10%[11.4 µM]

(list continues)
mol	AID923	A488 autofl	Resorufin autofl	A647 fluor	TSHR ag
O=c1c(CCc2ccccc2)nc2cnc(N3CCNCC3)nc2n1CCc1ccccc1	?	i	i	2.7e-08	0%
COCCNC(=O)Cn1nc(C(F)(F)F)c(Br)c1C	0.0%	nt	nt	nt	10%
O=C(CSc1ccccc1)N1CCN(c2ccccc2)CC1	0.0%	i	i	4.3e-09	9%
CCOC(=O)CSc1cn2c(n1)CCC2	-1.9%	i	i	2.8e-08	-1%
O=C(CSc1nnnn1C1CCCCC1)Nc1nc2c(s1)CCCC2	1.0%	i	i	1e-09	21%
COc1ccc(S(=O)(=O)NCc2ccncc2)cc1OC	3.1%	nt	nt	nt	17%
O=C(c1ccco1)N1CCC[C@@]2(CCN(c3ccncc3)C2)C1	-0.2%	i	i	1.1e-09	8%
CCOC(=O)C1CCCN(C(=O)c2ccccc2SCCOC)C1 (centres undefined)	0.3%	i	i	1e-09	18%
CCC(C)(C)NC(=O)C(c1cccs1)N(CC1CCCO1)C(=O)Cn1nnc2ccccc21 (centres undefined)	-2.0%	i	i	1e-09	?
O=C(c1cccnc1)N1CCN(CCCc2ccccc2)CC1	-1.5%	i	i	1.7e-08	2%
